Ecoli rRNA inh = inhibitors of bacterial rRNA selective over humanized ribosomes; GFP signal change (wild-type ribosome), % (concentration not given with the values); E. coli WT GFP vs humanized-ribosome RFP mutants, fluorescence, 24 h; stronger effect = lower value; DMSO median 0, no signal -100; actives 1.6% (n = 350,000);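 active means significant combined selectivity score with lowered wild-type GFP, culture density cut under 30%, mutant RFP and density less affected; inactive means any of these conditions unmet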; further: one replicate is shown; some compounds called inactive have numbers as strong as hits
Ecoli rRNA inh OD600 = also measured in Ecoli rRNA inh; calls as there; OD600 change, %; measured here: OD600 growth;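 optical density of the mix in the first replicate; 0 = DMSO median and -100 = no signal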
Ecoli rRNA inh RFP = also measured in Ecoli rRNA inh; calls as there; RFP signal change, %; measured here: RFP humanized mutant strains;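 first replicate; 0 = DMSO median and -100 = no signal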
Active calls of the source: *; & = joins results of further samples. Not all compounds are listed; count on the stated rates, not on these rows.

Under each structure: Ecoli rRNA inh, Ecoli rRNA inh OD600, Ecoli rRNA inh RFP
C[C@@H]1CN([C@H](C)CO)C(=O)c2cc(NC(=O)Cn3cnnn3)ccc2O[C@H]1CN(C)C(=O)Nc1cccc2ccccc12
    3.0, 11.8, 2.3
CC(C)NC(=O)N(C)C[C@@H]1Oc2c(cccc2N(C)C)C(=O)N([C@H](C)CO)C[C@H]1C
    -3.3, 0.1, 1.0
C[C@@H]1CCCCO[C@@H](CN(C)C(=O)C2CCCCC2)[C@@H](C)CN([C@@H](C)CO)C(=O)c2cc(NS(=O)(=O)c3ccc(Cl)cc3)ccc2O1
    1.5, -3.0, 0.4
CC(C)NC(=O)N1CC(=O)N2[C@H](C1)[C@@H](c1ccc(/C=C/c3ccccc3)cc1)[C@@H]2CO
    -1.5, 15.9, -1.6
C[C@H]1CN([C@@H](C)CO)C(=O)c2cc(C#CC3CCCCC3)cnc2O[C@H]1CN(C)S(C)(=O)=O
    3.7, -7.1, 0.2
COc1ccccc1C(=O)Nc1ccc2c(c1)C(=O)N(C)C[C@H](OC)[C@@H](C)CN(C)[C@H](C)CO2
    1.4, 4.7, -1.5
C/C=C/c1ccc2c(c1)O[C@H](CN(C)C(C)=O)[C@H](C)CN([C@H](C)CO)S2(=O)=O
    3.5, -0.3, -0.3
C[C@@H]1CN([C@@H](C)CO)C(=O)CCCn2nncc2CO[C@@H]1CN(C)S(C)(=O)=O
    4.0&1.8, 4.4&0.7, -4.1&1.2
C[C@H](CO)N1C[C@H](C)[C@H](CN(C)C(=O)Oc2ccccc2)OCc2ccccc2-c2ccccc2C1=O
    -0.3, -2.4, 2.8
O=C(C[C@H]1C[C@@H]2c3cc(NC(=O)C4CCC4)ccc3O[C@@H]2[C@H](CO)O1)NCc1cccnc1
    1.8, -9.0, -4.4
O=C(C[C@H]1C[C@@H]2c3cc(NC(=O)c4ccc5c(c4)OCO5)ccc3O[C@@H]2[C@@H](CO)O1)NCc1cccnc1
    -1.6, -2.6, -1.8
Cc1ccc(S(=O)(=O)N2CC[C@H]3[C@H](CO)Nc4ccc(-c5ccccc5F)cc4[C@H]32)cc1
    -0.2, -24.4, 12.4
C/C=C/c1ccc2c(c1)O[C@@H](CN(C)C(=O)C1CCOCC1)[C@@H](C)CN([C@H](C)CO)S2(=O)=O
    -2.0, 0.2, -1.9
CS(=O)(=O)N1C[C@@H]2C(c3ccccc3)[C@H](C1)N2Cc1ccc(F)cc1 (stereo partly specified)
    -8.1&-5.5, -10.8&-0.2, 3.0&-0.1
O=C(O)C[C@@H]1CC[C@@H](NC(=O)c2ccncc2)[C@H](CO)O1
    0.6, -1.0, 0.7
C[C@@H]1CN([C@@H](C)CO)C(=O)c2cccc(NS(=O)(=O)c3ccccc3)c2O[C@H]1CN(C)S(=O)(=O)c1cn(C)cn1
    -0.4, 2.7, -2.8
Cc1noc(C)c1NC(=O)N(C)C[C@@H]1Oc2ccc(NC(=O)NC3CCCCC3)cc2C(=O)N([C@@H](C)CO)C[C@H]1C
    0.1, 0.4, -0.9
O=C(Cc1ccccn1)NCC[C@@H]1CC[C@H](NC(=O)Nc2ccc(C(F)(F)F)cc2)[C@@H](CO)O1
    -3.0, -2.1, 1.8
CC(=O)N(C)C[C@@H]1Oc2ncc(C3=CCCC3)cc2C(=O)N([C@@H](C)CO)C[C@@H]1C
    3.5, 11.8, 0.4
C[C@@H]1CN([C@H](C)CO)C(=O)c2cccc(NC(=O)Nc3ccc(F)cc3)c2O[C@H]1CN(C)S(=O)(=O)c1ccccc1
    -3.8, -18.8, 0.5
CC1(C(=O)NS(=O)(=O)c2ccc(Cl)s2)CCN1C(=O)c1ccc(C2CCCCC2)cc1 (stereo unspecified)
    -36.5, -40.5, -4.8
C/C=C/c1ccc([C@@H]2[C@@H](CO)N(C(=O)c3ccccc3)C23CN(C(C)=O)C3)cc1
    1.9, 10.1, 1.2
Cc1ccc(-c2cnc3c(c2)C(=O)N([C@H](C)CO)C[C@@H](C)[C@H](CN(C)Cc2ccccc2C(=O)O)O3)cc1
    1.8, 13.2, -5.8
CO[C@@H]1CN(C)C(=O)c2ccc(NC(=O)C3CC3)cc2OC[C@@H](C)N(C(=O)NC(C)C)C[C@@H]1C
    2.4, 1.3, 0.6
COc1ccc2c3c(n(C)c2c1)[C@@H](CO)N(C(=O)Nc1ccc(F)cc1)CC31CCN(CC2CCOCC2)CC1
    -2.2, -3.0, -3.8
N#C[C@H]1[C@H](c2ccc(-c3ccccc3F)cc2)[C@@H](CO)N1C(=O)C1CC1
    0.8, 0.5, -2.0
COc1ccc(C[C@@H]2CCn3cc(nn3)COC[C@H](CC(C)C)NC2=O)cc1
    7.0, 0.6, 2.4
COc1cccc(S(=O)(=O)N2CCCCN3[C@@H](CO)[C@@H](c4ccc(-c5cncnc5)cc4)[C@@H]3C2)c1
    1.8, 2.5, 0.7
COc1ccc2c3c([nH]c2c1)[C@H](CO)N(C(=O)c1ccccn1)CC31CN(S(C)(=O)=O)C1
    3.8, 7.3, -1.9
C[C@@H]1CN([C@@H](C)CO)C(=O)c2cc(C#Cc3ccc(F)cc3)cnc2O[C@@H]1CN(C)CC1CCOCC1
    -0.6, 0.1, 2.0

3 entries out of the list above, arranged by their value in Ecoli rRNA inh RFP, falling.
Under each structure: Ecoli rRNA inh, Ecoli rRNA inh OD600, Ecoli rRNA inh RFP
COc1cccc(S(=O)(=O)N2CCCCN3[C@@H](CO)[C@@H](c4ccc(-c5cncnc5)cc4)[C@@H]3C2)c1
    1.8, 2.5, 0.7
CC(=O)N(C)C[C@@H]1Oc2ncc(C3=CCCC3)cc2C(=O)N([C@@H](C)CO)C[C@@H]1C
    3.5, 11.8, 0.4
Cc1ccc(-c2cnc3c(c2)C(=O)N([C@H](C)CO)C[C@@H](C)[C@H](CN(C)Cc2ccccc2C(=O)O)O3)cc1
    1.8, 13.2, -5.8

Back to the main list, repeating the 3 entries before the break.
Under each structure: Ecoli rRNA inh, Ecoli rRNA inh OD600, Ecoli rRNA inh RFP
COc1cccc(S(=O)(=O)N2CCCCN3[C@@H](CO)[C@@H](c4ccc(-c5cncnc5)cc4)[C@@H]3C2)c1
    1.8, 2.5, 0.7
COc1ccc2c3c([nH]c2c1)[C@H](CO)N(C(=O)c1ccccn1)CC31CN(S(C)(=O)=O)C1
    3.8, 7.3, -1.9
C[C@@H]1CN([C@@H](C)CO)C(=O)c2cc(C#Cc3ccc(F)cc3)cnc2O[C@@H]1CN(C)CC1CCOCC1
    -0.6, 0.1, 2.0
Cc1noc(C)c1S(=O)(=O)Nc1ccc2c(c1)C(=O)N([C@@H](C)CO)C[C@H](C)[C@@H](CN(C)S(=O)(=O)c1cccs1)O2
    -2.5, -6.5, -1.4
COc1ccc2c3c(n(C)c2c1)[C@@H](CO)N(C(=O)c1ccc(F)cc1)CC31CN(CC2CC2)C1
    3.5, 5.8, -0.4
CC(C)NC(=O)N[C@@H]1C=C[C@@H](CC(=O)NCc2ccc(Oc3ccccc3)cc2)O[C@H]1CO
    -6.5, -7.5, -0.5
CC(C)(C)[S@](=O)N1Cc2cc(C(=O)N3CCc4ccccc4C3)nc(-c3cccc(-c4ccncc4)c3)c2[C@@H]1CCO
    -4.5, -9.4, 7.0
COCC(=O)N(C)C[C@@H]1Oc2ncc(-c3cccc(OC)c3)cc2C(=O)N([C@@H](C)CO)C[C@H]1C
    -0.7, 13.6, -2.4
C[C@H](CO)N1C[C@H](C)[C@@H](CN(C)C(=O)Nc2cccc3ccccc23)Oc2ccc(NC(=O)Nc3ccccc3)cc2CC1=O
    2.7, 5.3, 6.9
C/C=C/c1ccc([C@H]2[C@H]3CN(C(=O)Nc4cc(F)ccc4F)CCCCN3[C@H]2CO)cc1
    -0.1, -43.6, 22.2
C[C@@H]1CN([C@H](C)CO)C(=O)c2cc(NC(=O)Cc3cn(C)c4ccccc34)ccc2O[C@@H]1CN(C)Cc1ccc(Cl)c(Cl)c1
    6.7, -5.3, -0.5
C[C@@H]1CN([C@H](C)CO)C(=O)c2cc(NC(=O)Nc3ccc4c(c3)OCO4)ccc2O[C@@H](C)CCCCO[C@H]1CN(C)Cc1ccccc1
    -2.6, -28.9, 33.9
N#C[C@H]1[C@H](c2ccc(C3=CCCC3)cc2)[C@@H](CO)N1C(=O)C1CCOCC1
    3.1, 13.1, 0.8
Cc1noc(C)c1NC(=O)Nc1ccc2c(c1)C(=O)N([C@@H](C)CO)C[C@H](C)[C@H](CN(C)Cc1ccc(C(F)(F)F)cc1)OCCCC[C@@H](C)O2
    2.3, -6.9, 9.8
COc1cc2c(=O)[nH]c3cc([N+](=O)[O-])ccc3c2cc1[N+](=O)[O-]
    -22.6, -10.5, -1.8
C[C@H](CO)N1C[C@H](C)[C@H](CN(C)C(=O)Nc2ccccc2)Oc2cc(C#CC3(O)CCCC3)ccc2S1(=O)=O
    -4.8, -10.8, -0.2
COc1ccccc1NC(=O)N1CCCCN2[C@H](C1)[C@@H](c1ccc(-c3ccc(C)cc3)cc1)[C@@H]2CO
    -1.6, -11.1, 1.4
O=C(C[C@@H]1CC[C@H]2NC[C@H](O)COC[C@@H]2O1)NCCN1CCCCC1
    -0.9, 11.1, -4.4
C[C@@H]1CN([C@H](C)CO)C(=O)c2cc(NC(=O)c3ccncc3)ccc2O[C@H]1CN(C)S(=O)(=O)c1cn(C)cn1
    1.5, 0.8, -0.8
CC(C)CC#Cc1ccc2c(c1)O[C@@H](CN(C)Cc1cccc(F)c1)[C@@H](C)CN([C@@H](C)CO)S2(=O)=O
    0.1, 4.7, -3.3
CC(C)CC1C(=O)N(Cc2cn(CC3CCCCC3)nn2)CCS(=O)(=O)N1Cc1ccc(-c2ccncc2)cc1 (stereo unspecified)
    0.8, -12.3, -3.8
C[C@@H]1CN([C@@H](C)CO)C(=O)c2cc(NC(=O)Nc3ccc(F)cc3)ccc2O[C@H]1CN(C)S(=O)(=O)c1cccs1
    -4.5, -9.3, 1.1
C[C@H]1CN([C@@H](C)CO)C(=O)CCCn2nncc2CO[C@H]1CN(C)Cc1cccc(C(F)(F)F)c1
    -6.4, -13.1, 0.1
C[C@@H]1CN([C@H](C)CO)C(=O)c2cc(NC(=O)Nc3ccc4c(c3)OCO4)ccc2O[C@@H]1CN(C)S(=O)(=O)c1cn(C)cn1
    -0.9, -4.4, -1.8
C[C@H](CO)N1C[C@H](C)[C@@H](CN(C)Cc2ccc3c(c2)OCO3)Oc2c(NC(=O)Nc3cccc4ccccc34)cccc2C1=O
    -12.9, -27.0, 0.7
C[C@@H]1CCCCO[C@H](CN(C)C(=O)Nc2ccc3c(c2)OCO3)[C@@H](C)CN([C@@H](C)CO)C(=O)c2cc(NS(=O)(=O)c3ccccc3)ccc2O1
    2.0, -1.7, 0.7
CCNC(=O)[C@@H]1[C@@H](CO)[C@@H]2Cn3c(ccc(-c4ccccc4F)c3=O)[C@H]1N2S(C)(=O)=O
    0.5, 4.3, -2.8
C[C@@H]1CN([C@@H](C)CO)S(=O)(=O)c2ccc(C#Cc3ccncc3)cc2O[C@H]1CN(C)C(=O)C1CCCCC1
    -17.1, -21.9, 1.0
COC(=O)C1=C(C)N(Cc2ccc(Br)cc2)C(=S)NC1c1cccc(F)c1 (stereo unspecified)
    15.5, 17.2, 5.4
Cc1ccc2nc(-c3ccc(C#N)cc3)c(Cc3cccc(Cl)c3)n2c1
    -11.8, -20.4, -1.0
Cc1cccc(C)c1NC(=O)C(c1ccccc1)N(C)CCc1ccccc1 (stereo unspecified)
    -12.4, -31.6, -5.9
CCC(=O)N1CC[C@@H]2[C@H]1c1cc(-c3cccc(F)c3)ccc1N(C)[C@@H]2CO
    1.8, -2.7, 0.1
Nc1nccc2c1ncn2C1OC(CO)C(O)C1O (stereo unspecified)
    1.4, 5.4, 2.3
O=C(C[C@H]1C=C[C@@H](NC(=O)C2CCOCC2)[C@H](CO)O1)NCC1CCCCC1
    -5.5, -5.1, -1.7
COc1ccc(NC(=O)N(C)C[C@@H]2OCCCC[C@@H](C)Oc3ccc(NC(=O)NC4CCCCC4)cc3C(=O)N([C@H](C)CO)C[C@H]2C)cc1
    0.0, 1.9, -2.1
CCCNC(=O)N1[C@H](CO)[C@@H](c2ccccc2)[C@H]1CNC(=O)c1ccccc1
    -8.3, -4.2, -4.0
C[C@H]1CN([C@@H](C)CO)S(=O)(=O)c2ccc(-c3ccc(C#N)cc3)cc2O[C@H]1CN(C)Cc1ccccn1
    -7.6, -7.7, 4.0
O=C(c1ccccc1F)N1CC[C@@H]2[C@@H](CO)Nc3ccc(-c4ccc(F)cc4)cc3[C@@H]21
    -10.9, -57.5, 22.1
O=C(C[C@@H]1C=C[C@H](NC(=O)c2ccccc2)[C@H](CO)O1)NCc1ccncn1
    2.8, 10.9, -2.0
C[C@H]1CN([C@@H](C)CO)C(=O)c2cc(-c3cccc(C#N)c3)cnc2O[C@H]1CN(C)Cc1cccnc1
    3.4, 4.7, -0.8
CO[C@@H]1CN(C)C(=O)c2ccc(NC(=O)C3CCC3)cc2OC[C@@H](C)N(C(=O)NC(C)C)C[C@H]1C
    2.5, 4.4, 0.6
O=C(NC1CCCCC1)N1CC(=O)N2[C@H](CO)[C@@H](c3ccc(-c4ccccc4)cc3)[C@H]2C1
    0.9, -1.4, -1.3
CCCNC(=O)N(C)C[C@@H]1Oc2ncc(/C=C/c3ccccc3)cc2C(=O)N([C@@H](C)CO)C[C@@H]1C
    -2.7, 1.0, -0.3
C[C@H]1CN([C@@H](C)CO)C(=O)c2cc(NC(=O)Nc3ccc(C(F)(F)F)cc3)ccc2O[C@H]1CN(C)Cc1ccc(-c2ccccc2)cc1
    4.5, 10.5, -1.6
Cc1cccc(C(O)c2ncc(-c3ccc(F)cc3)[nH]2)c1C (stereo unspecified)
    0.5, -2.1, 3.3
C[C@@H]1CN([C@@H](C)CO)S(=O)(=O)c2ccc(-c3cccc(C#N)c3)cc2O[C@@H]1CN(C)C
    1.5, 3.2, -1.1
COCC#Cc1cnc2c(c1)C(=O)N([C@H](C)CO)C[C@H](C)[C@@H](CN(C)C(=O)c1cnccn1)O2
    4.4, 13.2, -3.4
Cc1cc(C)cc(Cn2cc(CN3CC(N4CCCC4)CS3(=O)=O)nn2)c1 (stereo unspecified)
    8.8, 12.5, 3.3

Compound activity (PubChem BioAssay)
